# Measles inh: inhibitors of measles virus growth in infected cells. infected Vero cells, GFP fluorescence, 64 h; hits give low values. z-score (test concentration not listed). hit rate 0.1% among 33,000. AID 745;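 active = z-score under -3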;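 note: score is relative to mean and SD of the compound wells of a plate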
# Numbers without * were called inactive. An excerpt; count on the stated rates, not on these rows.
Measles inh,Molecule
-1.5,CN1c2ccccc2Oc2nnc(N3CCN(Cc4ccccc4)CC3)cc21
0.04,CCOC(=O)c1c(C)oc2ccc(OC(=O)c3ccco3)cc12
-0.42,CC(C)CC(=O)N1CCN(Cc2cccc(F)c2)CC1
0.38,CCOC(=O)c1cc2c(=O)n3ccccc3nc2n(CC(C)C)c1=NC(=O)c1c(OCC)ccc2ccccc12
1.2,CC(=O)NCCNC(=O)CCCn1c(=O)[nH]c2ccsc2c1=O
-0.4,COc1ccccc1CNC(=O)CCn1c(=O)c2ccccc2n(Cc2ccccc2Cl)c1=O
0.14,COc1ccccc1C(=O)Oc1c(S(=O)(=O)c2ccccc2)c(C)nn1-c1ccc(C)cc1C
2.6,CCN(CC)c1ccc2cc(NC(=O)CCC(=O)O)c(=O)oc2c1

# (further entries)
Measles inh,Molecule
0.3,CCC1=NN(C(=O)c2cccc(Cl)c2)C(O)(c2ccc(Br)cc2)C1 (centres undefined)
0.57,CCN(CC)c1ccc(C(=O)N=c2sc3ccccc3n2C)cc1
0.41,COCCOC(=O)C1=C(C)NC(=O)NC1c1ccc(O)c(OC)c1 (centres undefined)
0.08,CCCn1cnc2sc(C(=O)Nc3cc(C(=O)OC)cc(C(=O)OC)c3)c(C)c2c1=O
-0.37,O=C(COc1ccc(C2CCCCC2)cc1)Nc1ccc(-c2nc3ncccc3o2)cc1
-0.52,O=P(CN(Cc1cccs1)CC1CCCO1)(c1ccccc1)c1ccccc1 (centres undefined)
1,CSc1ccccc1NC(=O)Cn1nc([N+](=O)[O-])c(Cl)c1C
-0.65,COc1ccc(-c2cc(C(=O)N3CCN(c4ccccc4)CC3)no2)cc1OC

# (more compounds)
Measles inh,Molecule
0.19,Cc1cc(NC(=O)CCN2CCN(CCO)CC2)ccc1Br
1.9,O=[N+]([O-])c1ccc(C=Nc2ccccc2)cc1
-0.71,COC(=O)c1ccc(C2C3=C(CC(c4ccc(C(C)(C)C)cc4)CC3=O)Nc3ccccc3N2C(=O)C2CC2)cc1 (centres undefined)
-0.53,CCOC(=O)c1ccc(NC(=O)c2[nH]c(C)c(C(C)=O)c2C)cc1
-0.67,Cc1nn(-c2nc3ccccc3[nH]2)c(=O)c2ccccc12
-0.31,COc1ccc2c(c1)CCc1c(C(=O)Nc3cc(Cl)ccc3O)noc1-2
2,Fc1ccc2c(c1)C1C=CCC1C(c1ccc(Cl)cc1)N2 (centres undefined)
0.47,CN(C)c1nc(SCCOC(=O)c2ccccc2)nc(N(C)C)n1

# (listing goes on)
Measles inh,Molecule
0.14,COc1ccc(C2SCCN2C(=O)c2cc3ccccc3oc2=O)cc1OC (centres undefined)
-1.1,Cc1noc(C)c1S(=O)(=O)N1CCC(C(=O)NC2CCCc3ccccc32)CC1 (centres undefined)
-0.13,O=C(CCCOc1ccccc1)Nc1ccc(C(=O)O)cc1
2.4,CCOc1ccc(-c2cn(-c3cc(C)ccc3C)c(=O)[nH]2)cc1Cl
-0.77,CC(C)(C)c1ccc(CNc2cc(N3CCCC3)ccc2[N+](=O)[O-])cc1
1.4,Cc1c(Cl)cccc1-n1c(-c2cccc([N+](=O)[O-])c2)n[nH]c1=S
-0.38,CCOC(=O)C1CCN(C(=O)c2cn(CC(C)C)c(=O)c3cc(OC)c(OC)cc23)CC1
-0.27,O=C(Nc1ccc(-c2nc3ccccc3o2)cc1)c1ccc(N2C(=O)C3C4C=CC(C4)C3C2=O)cc1 (centres undefined)

# No new results follow: entries from further up.
Measles inh,Molecule
-1.1,Cc1noc(C)c1S(=O)(=O)N1CCC(C(=O)NC2CCCc3ccccc32)CC1 (centres undefined)
-0.13,O=C(CCCOc1ccccc1)Nc1ccc(C(=O)O)cc1
2.4,CCOc1ccc(-c2cn(-c3cc(C)ccc3C)c(=O)[nH]2)cc1Cl
-0.77,CC(C)(C)c1ccc(CNc2cc(N3CCCC3)ccc2[N+](=O)[O-])cc1

# (list continues)
Measles inh,Molecule
0.07,COc1ccc(-c2cnnn2-c2ccc(NC(=O)c3ccc(S(=O)(=O)N(C)C)cc3)cc2)cc1OC
0.33,CCC(c1ccccc1)c1nnc(NC(=O)c2ccco2)s1 (centres undefined)
0.72,CN(Cc1ccccc1)C(=O)c1ccc2c(=O)n(-c3cccc(C(F)(F)F)c3)c(=S)[nH]c2c1
0.01,C=CCn1c(N)cc(=O)nc1SCC(=O)Nc1cc(C)on1
0.49,COc1ccc(-n2cc(C(=O)NCc3cccnc3)c3ccccc3c2=O)cc1
-0.58,O=C1c2ccccc2C(=O)N1CC1c2ccccc2CCN1S(=O)(=O)c1ccc(OC(F)(F)F)cc1 (centres undefined)
0.43,O=C(CSc1nc2c(sc3ccccc32)c(=O)n1C1CCCCC1)NCc1ccccc1
-0.26,c1ccc2oc(SCCCCSc3nc4ccccc4o3)nc2c1

# The list continues.
Measles inh,Molecule
-0.46,Cc1ccc(C(=O)Nc2ccc(-c3nc4cc(C)cc(C)c4o3)cc2)cc1
-2.2,CC(C)NC(=O)CCn1nc(-c2ccc(Cl)cc2)ccc1=O
0.59,Cc1cccc(NC(=O)c2ccc(NC(=O)CCS(=O)(=O)c3cccs3)cc2)c1C
-1.2,CCOC(=O)C1=C(C)N=C2SC(CC)C(=O)N2C1c1ccc(SC)cc1 (centres undefined)
0.9,CCOCCCNS(=O)(=O)c1ccc2c(c1)CCN2C(=O)C1CC1
-0.46,CCOc1ccccc1NC(=O)c1ccc(F)c(S(=O)(=O)N2CCN(c3ccccn3)CC2)c1
0.25,COc1ccccc1Nc1nc(NCc2ccccc2)c2ccccc2n1
-2,COc1ccc(-c2cc(C(F)(F)F)n3nc(C(=O)N4CCC(C)CC4)cc3n2)cc1OC

# Continued:
Measles inh,Molecule
-0.47,COc1ccc(NC(=O)c2c(NCc3ccc(C)o3)sc3c2CCC(C)C3)cc1 (centres undefined)
-0.06,CC(=O)c1c(C)[nH]c(C(=O)N2CCN(C3CCCCC3)CC2)c1C
-0.24,Cc1nc2nc(SCC(=O)N3CCC(C)CC3)nn2c(C)c1Cc1ccccc1
-0.42,CSCCOC(=O)c1[nH]c2c(c1C)C(=O)CC(c1cccs1)C2 (centres undefined)
1.2,O=C(COc1ccc([N+](=O)[O-])cc1)OC1CCS(=O)(=O)C1 (centres undefined)
-0.45,Cc1ccc(S(=O)(=O)N=C(N)Nc2nc3ccccc3s2)cc1
0.28,CC1(C)CC(=O)c2cc(C(=O)NCc3ccco3)c(=O)n(-c3ccccc3)c2C1
-0.39,Oc1ccccc1C=Cc1noc(-c2ccccc2O)n1

# Later entries.
Measles inh,Molecule
-0.18,CCNc1nc(OCCO)nc(N(C)C)n1
-0.41,O=C(Nc1ccc(Br)cc1)c1ccc(F)c(S(=O)(=O)NCc2ccccc2Cl)c1
0.12,NC(=O)C1CCN(C(=O)CCn2c(=S)[nH]c3ccccc3c2=O)CC1
-0.15,CCOc1ccc(C2CC(=O)C3=C(C2)Nc2ccccc2NC3c2ccccc2[N+](=O)[O-])cc1OC (centres undefined)
-0.19,Cc1cc(C)n2nc(SCC(=O)Nc3cccc(Cl)c3)nc2n1
0.2,Cc1cc(C(=O)NC2CC2)c2ccccc2n1
1.1,COc1cc(C(=O)Oc2ccc3c(=O)c(Oc4cc(C)cc(C)c4)coc3c2)cc(OC)c1OC
-0.01,O=C(Cn1ccc2ccccc2c1=O)NCCC(=O)N1CCN(C(=O)c2ccco2)CC1

# (list continues)
Measles inh,Molecule
-2,COC(=O)c1c(NC(=O)c2ccc(OC(C)C)cc2)sc2c1CCC(c1ccccc1)C2 (centres undefined)
0.58,O=C(NC1CCCC1)c1ccc(CSCc2cccc(Cl)c2)o1
0.49,Cc1ccc(-c2csc(N3C(=O)CN=C3SCc3ccc(Cl)cc3)n2)cc1
-0.15,COc1ccc2nc3oc(C(=O)NCCc4ccc(Cl)cc4)cc3cc2c1
0.68,Cc1ccc(NC(=O)C2c3ccccc3Oc3ccccc32)c(C)c1
-0.78,CCC1CCCCN1S(=O)(=O)c1ccc2c(c1)CCN2C(=O)C1CCC1 (centres undefined)
-0.91,O=C(NCc1cccnc1)C(Cc1ccccc1)NS(=O)(=O)c1ccc(Br)cc1 (centres undefined)
-1.1,COc1ccc(C2Nc3ccccc3C(=O)N2Cc2ccco2)cc1Cn1cc([N+](=O)[O-])cn1 (centres undefined)

# (continued)
Measles inh,Molecule
-1.4,CC(=O)Oc1ccccc1C(=O)NCCc1ccc(S(N)(=O)=O)cc1
-0.31,CCOC(=O)c1c(NC(=O)c2ccc(F)cc2)sc(C)c1C
-0.28,Cc1ccc2nc(NC(=O)C(Cc3ccccc3)NS(=O)(=O)c3ccc(Br)s3)sc2c1 (centres undefined)
-0.17,O=C(O)c1ccc(OC(=O)c2ccc3c(c2)C(=O)N(c2ccccc2)C3=O)cc1
1.4,CCn1cc(C(=O)Nc2ccc(S(=O)(=O)NC(=O)c3ccccc3)cc2)c(=O)c2ccc(C)nc21
-1.8,CCN(c1ccccc1)S(=O)(=O)c1ccc2[nH]cc(C(=O)NC(C)C)c(=O)c2c1
0.06,O=C(Oc1ccc2ccccc2c1)c1ccc([N+](=O)[O-])cc1Cl
1.3,CCc1nnc(NC(=O)CSc2nc3c(cc2C#N)CCCC3)s1

# More compounds follow.
Measles inh,Molecule
-0.59,COc1ccc(CCNc2c3c(c(C#N)c4nc5ccccc5n24)CCC3)cc1OC
-0.01,CCN(c1ccccc1C(=O)O)S(=O)(=O)c1cccc2nsnc12
-0.7,COc1ccccc1N(CC(=O)NCc1ccccc1C)S(C)(=O)=O
0.08,COc1ccc(C2/C(=C(\O)c3ccc(C)cc3)C(=O)C(=O)N2c2nc3ccccc3s2)c(OC)c1 (centres undefined)
0.05,CCN(CC)c1ccc(C(=O)Nc2ccc3nc(N4CCCCC4)cc(C)c3c2)cc1
2.3,CC(=O)N1c2ccc(S(=O)(=O)N3CC(=O)N(CCc4ccccc4)C(=O)C3)cc2CC1C (centres undefined)
-0.95,N#CCSc1nc2cc(C(=O)N3CCOCC3)ccc2c(=O)n1Cc1ccccc1
6.1,CC1=CC(=Nc2c(C)n(C)n(-c3ccccc3)c2=O)c2ccccc2C1=O

# Further compounds.
Measles inh,Molecule
1.2,CCSc1nnc(-c2c[nH]c3ccccc23)n1CC
2.6,Cc1ccc(C(C)C)c(OCC(=O)Nc2ccc(S(=O)(=O)N3CCOCC3)cc2)c1
1.9,CC1CCN(C(=O)CSc2nc3c([nH]c4ccccc43)c(=O)n2-c2ccccc2)CC1
-0.03,c1ccc(-c2c3ccccc3[s+]c3ccccc23)cc1
0.69,Cc1nc2sc(C(c3ccc(C(C)C)cc3)N3CC(C)CC(C)C3)c(O)n2n1 (centres undefined)
-1.5,CCCc1cc(=O)oc2cc3oc4c(c3cc12)CCCC4
-0.75,Cc1ccc(-n2c(CCC(=O)O)ccc2-c2cccs2)cc1C
2,Cc1cc(=O)oc2c(CN3CCCCC3C)c(O)ccc12 (centres undefined)

# (next part)
Measles inh,Molecule
-0.46,CCC1CCCCN1S(=O)(=O)c1ccc2c(c1)CC(C)N2C(C)=O (centres undefined)
-2,CCOC(=O)c1c(NC(=O)c2cc(-c3ccco3)on2)sc2c1CCCC2
0.77,O=S(=O)(NCCn1ccc2ccccc21)c1ccccc1
-0.27,CN(C(=O)Cn1c(=O)n(-c2ccccc2)c(=O)c2c3c(sc21)CCC3)C1CCCCC1
-0.57,CNC(=O)c1ccc2c(c1SC)C(=O)c1ccccc1C2=O
0.6,CSc1ccccc1N1C(=O)C2CCCCC2C1=O (centres undefined)
0.74,Cc1cc(C)c(C#N)c(SCC(=O)CC(=O)OC(C)C)n1
-0.21,CCc1ccc(NS(=O)(=O)c2ccc3c(c2)CCN3C(C)=O)cc1

# Some of the entries so far, as labelled records:
CCOC(=O)c1c(NC(=O)c2cc(-c3ccco3)on2)sc2c1CCCC2
  Measles inh: -2

O=S(=O)(NCCn1ccc2ccccc21)c1ccccc1
  Measles inh: 0.77

CN(C(=O)Cn1c(=O)n(-c2ccccc2)c(=O)c2c3c(sc21)CCC3)C1CCCCC1
  Measles inh: -0.27

CNC(=O)c1ccc2c(c1SC)C(=O)c1ccccc1C2=O
  Measles inh: -0.57

# Returning to the listing, repeating the three entries before the break.
Measles inh,Molecule
0.6,CSc1ccccc1N1C(=O)C2CCCCC2C1=O (centres undefined)
0.74,Cc1cc(C)c(C#N)c(SCC(=O)CC(=O)OC(C)C)n1
-0.21,CCc1ccc(NS(=O)(=O)c2ccc3c(c2)CCN3C(C)=O)cc1
-0.17,CSc1nc2ccc(N=Cc3ccc(F)cc3)cc2s1
-0.1,Cc1ccc(C2(C)CC(C)(C)N(C(=O)CSC#N)c3ccc(C)cc32)cc1 (centres undefined)
-0.19,CCCCNC(=O)Cn1nc([N+](=O)[O-])c([N+](=O)[O-])c1C
-0.45,CSc1ncnc2c1c(-c1ccccc1)cn2-c1ccc(F)cc1
-0.2,CC(=O)c1cccc(NC(=O)c2ccccc2C(=O)O)c1
-0.07,CC(C)(C)C1(O)CC(C(F)(F)F)=NN1C(=O)c1ccc(I)cc1 (centres undefined)
0.39,CC(C)(C)C(=O)N/C(N)=N/c1nc2ccccc2s1
2.1,O=C1CS/C(=N/C(=O)N2c3ccccc3Sc3ccccc32)N1

# Next section.
Measles inh,Molecule
0.16,COCCOC(=O)C1=C(C)NC2=C(C(=O)CC(C)(C)C2)C1c1coc2ccccc2c1=O (centres undefined)
-1.2,COc1ccc(S(=O)(=O)N2CCN(Cc3ccc4c(c3)OCO4)CC2)cc1
0.01,CC(C)(C)c1ccc(C(=O)N2CCN(C(=O)c3ccc(C(C)(C)C)cc3)CC2)cc1
1.1,CCOc1cc(C2Nc3cc(C)c(C)cc3NC3=C2C(=O)CC(C)(C)C3)cc(Br)c1OC (centres undefined)
-1.4,Nc1nc2cc3nc(N)sc3cc2s1
-1.6,CCOc1ccc(C(=O)N2CC(=O)Nc3ccc(Cl)cc3C2c2ccc(F)cc2)cc1 (centres undefined)
0.45,O=C(O)Cn1c(CCS(=O)(=O)c2ccc(Br)cc2)nc2ccccc21
-0.32,O=C(c1ccc(C(F)(F)F)cc1)N1CCN=C1SCc1ccc([N+](=O)[O-])cc1

# Continued.
Measles inh,Molecule
0,Cc1ccnc(NC(=O)c2ccc([N+](=O)[O-])cc2)c1
-0.12,COc1ccc(NC(=O)c2cc3c(CO)cnc(C)c3oc2=Nc2ccc(OC)c(OC)c2)cc1
-0.04,CCOc1ccc(S(=O)(=O)NCC2CCCN2CC)c2cccnc12 (centres undefined)
-0.58,CC1=C(C(=O)OC2CCCC2)C(c2ccncc2)C2=C(CCCC2=O)N1 (centres undefined)
